# High-throughput results from PubChem.
# A1 apoptosis 2 – A1 inhibitors via caspase activation, primary screen, cell-based, luminescence, HTS, two replicates. MEF A1-2A-BIM cells, caspase-Glo luminescence, 3 h; percent of clofoctol response, DMSO zero. caspase activation, % (concentration not given with the values). 24,000 tested, under 10 active; in the data active = caspase activation above about 5.9%;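 note: wells of about 30 µL received 50 nL stock; the first replicate is given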
#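 System: mouse embryonic fibroblasts co-expressing A1 and BIM (A1-2A-BIM), primed for A1 dependence; amount: 2500 cells/well; doses: 50 nL pinned compound; schedule: cells settled overnight, compound exposure 3 h at 37 °C, 5% CO2; detection: Caspase-Glo 3/7 luminescence, 1 h at room temperature; read-out: Caspase-3/7 activation, seen as rise in luminescence signal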
# * = called active by the depositor. Only part of the results is shown; rates above refer to the full screens.
mol	A1 apoptosis 2
O=C(CCCCCC(=O)N/N=C/c1ccc([N+](=O)[O-])c(O)c1)NO	0.1
O=C(Nc1ccccc1)C1=C[C@H](C2CCCCC2)C[C@H](OCc2ccc(CO)cc2)O1	-0.6
COc1ccc(NC(=O)N(C)C[C@@H]2Oc3c(NS(=O)(=O)c4c(C)noc4C)cccc3C(=O)N([C@H](C)CO)C[C@@H]2C)cc1	-1.2
O=C(CCCCCC(=O)N/N=C/CCC1CCCCC1)NO	0.6
C[C@@H]1CCCCO[C@H](CN(C)C(=O)Nc2ccc(F)cc2)[C@H](C)CN([C@H](C)CO)C(=O)c2cc(NS(C)(=O)=O)ccc2O1	-0.9
C[C@@H]1CN([C@@H](C)CO)C(=O)c2cc(NC(=O)CCCCCC(=O)Nc3ccccc3N)ccc2O[C@H]1CN(C)C(=O)Nc1ccc(F)cc1	1.1
CCCC(O)C#Cc1cnc2c(c1)C(=O)N([C@H](C)CO)C[C@H](C)[C@H](CN(C)S(=O)(=O)c1ccccc1)O2 (some centres not stated)	-1.5
C[C@@H]1CCCCO[C@H](CN(C)Cc2ccc(C(=O)O)cc2)[C@H](C)CN([C@@H](C)CO)C(=O)c2cc(NC(=O)c3ccccc3)ccc2O1	-0.5
C[C@@H]1CN([C@H](C)CO)C(=O)c2cccc(NC(=O)CCCCCC(=O)Nc3ccccc3N)c2O[C@H]1CN(C)Cc1ccc(Oc2ccccc2)cc1	0.8
C[C@@H]1CN([C@H](C)CO)C(=O)c2cccc(NC(=O)c3ccc(-c4nccs4)cc3)c2O[C@@H]1CN(C)C(=O)Nc1ccccc1	-0.3
O=C(O)CCCCCC(=O)N/N=C/c1ccc(Br)o1	0.3
CC1(C)[C@H]2CC=C(/C=N\NC(=O)c3ccccc3O)[C@@H]1C2	-1.2

# (cont.)
mol	A1 apoptosis 2
C[C@@H]1CN([C@@H](C)CO)C(=O)Cc2cc(NS(C)(=O)=O)ccc2O[C@H]1CN(C)C(=O)Nc1ccccc1	-0.3
C[C@@H]1CN([C@@H](C)CO)C(=O)c2cccc(NC(=O)Nc3ccc4c(c3)OCO4)c2O[C@H]1CN(C)Cc1ccc(C(F)(F)F)cc1	-0.9
Cc1noc(C)c1NC(=O)Nc1ccc2c(c1)C(=O)N([C@H](C)CO)C[C@H](C)[C@H](CN(C)C(=O)Nc1ccc3c(c1)OCO3)OCCCC[C@@H](C)O2	0.5
C[C@H](CO)N1C[C@H](C)[C@@H](CN(C)Cc2ccc3c(c2)OCO3)OCCCC[C@H](C)Oc2ccc(NS(=O)(=O)c3ccccc3)cc2C1=O	-0.8
C[C@@H]1CN([C@H](C)CO)C(=O)c2cccc(NC(=O)Nc3ccc(C(F)(F)F)cc3)c2O[C@H]1CN(C)S(=O)(=O)c1ccccc1	0.9
Cc1noc(C)c1NC(=O)Nc1ccc2c(c1)C(=O)N([C@@H](C)CO)C[C@@H](C)[C@H](CN(C)C(=O)C1CCCCC1)OCCCC[C@H](C)O2	-0.3
C[C@@H]1CN([C@@H](C)CO)C(=O)CCCn2cc(nn2)CO[C@H]1CN(C)C(=O)Nc1cccc(F)c1	-0.5
C[C@H]1CN([C@@H](C)CO)C(=O)c2cccc(NC(=O)c3nc4ccccc4s3)c2O[C@@H]1CN(C)C(=O)NC1CCCCC1	0.2
C[C@@H]1CN([C@H](C)CO)C(=O)Cc2cc(NC(=O)Cc3cn(C)c4ccccc34)ccc2O[C@@H]1CN(C)C(=O)Nc1cccc2ccccc12	1.3
C[C@@H]1CCCCO[C@H](CN(C)Cc2ccc(Cl)c(Cl)c2)[C@@H](C)CN([C@@H](C)CO)C(=O)c2cc(NC(=O)Nc3ccccc3)ccc2O1	0.0
COc1ccc(S(=O)(=O)Nc2ccc3c(c2)CC(=O)N([C@@H](C)CO)C[C@@H](C)[C@@H](CN(C)S(=O)(=O)c2cn(C)cn2)O3)cc1	-1.6
C[C@@H]1CN([C@H](C)CO)C(=O)CCCn2nncc2CO[C@H]1CN(C)C(=O)C1CC1	-0.7

# Fetched by compound from the entries so far (seven):
mol	A1 apoptosis 2
C[C@@H]1CN([C@@H](C)CO)C(=O)Cc2cc(NS(C)(=O)=O)ccc2O[C@H]1CN(C)C(=O)Nc1ccccc1	-0.3
C[C@@H]1CN([C@H](C)CO)C(=O)c2cccc(NC(=O)Nc3ccc(C(F)(F)F)cc3)c2O[C@H]1CN(C)S(=O)(=O)c1ccccc1	0.9
Cc1noc(C)c1NC(=O)Nc1ccc2c(c1)C(=O)N([C@H](C)CO)C[C@H](C)[C@H](CN(C)C(=O)Nc1ccc3c(c1)OCO3)OCCCC[C@@H](C)O2	0.5
COc1ccc(S(=O)(=O)Nc2ccc3c(c2)CC(=O)N([C@@H](C)CO)C[C@@H](C)[C@@H](CN(C)S(=O)(=O)c2cn(C)cn2)O3)cc1	-1.6
C[C@@H]1CN([C@H](C)CO)C(=O)CCCn2nncc2CO[C@H]1CN(C)C(=O)C1CC1	-0.7
C[C@H]1CN([C@@H](C)CO)C(=O)c2cccc(NC(=O)c3nc4ccccc4s3)c2O[C@@H]1CN(C)C(=O)NC1CCCCC1	0.2
Cc1noc(C)c1NC(=O)Nc1ccc2c(c1)C(=O)N([C@@H](C)CO)C[C@@H](C)[C@H](CN(C)C(=O)C1CCCCC1)OCCCC[C@H](C)O2	-0.3

# Carrying on:
mol	A1 apoptosis 2
C[C@H](CO)N1C[C@H](C)[C@H](CN(C)CC2CCCCC2)Oc2ccc(NC(=O)C3CCCCC3)cc2CC1=O	0.5
COc1ccc(-c2cn(CC(=O)N3CCOCC3)nn2)cc1OC	0.2
COc1ccc(NC(=O)N(C)C[C@H]2OCCCC[C@@H](C)Oc3ccc(NC(=O)Nc4ccc(F)cc4)cc3C(=O)N([C@H](C)CO)C[C@@H]2C)cc1	0.0
Cc1ccc(S(=O)(=O)N(C)C[C@@H]2Oc3c(NC(=O)C4CCOCC4)cccc3C(=O)N([C@H](C)CO)C[C@@H]2C)cc1	0.2
C[C@H]1CCCCO[C@@H](CN(C)C(=O)c2ccccc2)[C@@H](C)CN([C@@H](C)CO)C(=O)c2cc(NC(=O)C3CCCCC3)ccc2O1	1.0
C[C@H](CO)N1C[C@H](C)[C@@H](CN(C)S(C)(=O)=O)OCCCC[C@H](C)Oc2ccc(NS(=O)(=O)c3ccccc3)cc2C1=O	-0.7
C[C@@H]1CN([C@H](C)CO)C(=O)c2cc(NC(=O)Cc3ccccc3)ccc2O[C@@H](C)CCCCO[C@H]1CN(C)C(=O)Nc1cccc2ccccc12	-0.6
C[C@@H]1CCCCO[C@@H](CN(C)S(=O)(=O)c2cn(C)cn2)[C@@H](C)CN([C@H](C)CO)C(=O)c2cc(N(C)C)ccc2O1	0.7
Cc1noc(C)c1NC(=O)N(C)C[C@H]1Oc2ccc(NC(=O)C3CCCCC3)cc2C(=O)N([C@@H](C)CO)C[C@@H]1C	-0.7
C[C@@H]1CN([C@H](C)CO)C(=O)c2cccc(NS(=O)(=O)c3ccccc3)c2O[C@H]1CN(C)C(=O)Nc1cccc2ccccc12	0.5
C[C@@H]1CN([C@H](C)CO)C(=O)c2cc(NC(=O)Cc3ccccc3)ccc2O[C@H]1CN(C)Cc1ccc(Cl)c(Cl)c1	-0.8
C[C@@H]1CN([C@H](C)CO)C(=O)c2cc(NC(=O)NC3CCCCC3)ccc2O[C@H]1CN(C)Cc1ccncc1	0.3

# More records.
mol	A1 apoptosis 2
C[C@H]1CN([C@@H](C)CO)C(=O)Cc2cc(NC(=O)Nc3ccccc3)ccc2O[C@@H]1CN(C)Cc1ccc(C(F)(F)F)cc1	0.4
COc1ccc(S(=O)(=O)Nc2ccc3c(c2)C(=O)N([C@@H](C)CO)C[C@H](C)[C@@H](CN(C)Cc2ccc4c(c2)OCO4)O3)cc1	-0.6
C[C@@H]1CN([C@H](C)CO)C(=O)c2cc(NC(=O)C3CC3)ccc2O[C@@H]1CN(C)S(=O)(=O)c1ccc(F)cc1	-0.7
C[C@@H]1CN([C@H](C)CO)C(=O)c2cc(NC(=O)Nc3cccc4ccccc34)ccc2O[C@H]1CN(C)S(=O)(=O)c1cn(C)cn1	-0.8
CNC[C@@H]1Oc2ccc(NC(=O)Cc3cn(C)c4ccccc34)cc2CC(=O)N([C@H](C)CO)C[C@H]1C	0.5
Cc1ccc(S(=O)(=O)N(C)C[C@H]2Oc3ccc(NC(=O)CCN4CCOCC4)cc3CC(=O)N([C@H](C)CO)C[C@H]2C)cc1	0.3
CNC[C@H]1Oc2ccc(NC(=O)Cc3cn(C)c4ccccc34)cc2CC(=O)N([C@H](C)CO)C[C@@H]1C	-0.2
COC(=O)CCCCCCC(=O)N/N=C/[C@H](O)[C@@H](O)[C@H](O)[C@H](O)CO[C@H]1O[C@H](CO)[C@H](O)[C@H](O)[C@H]1O	1.1
O=C(O)CCCCCCC(=O)NN=C1CCCCCCC1	-0.6
COc1ccc(S(=O)(=O)Nc2cccc3c2O[C@H](CN(C)Cc2ccncc2)[C@@H](C)CN([C@H](C)CO)C3=O)cc1	0.5
C[C@H]1CN([C@@H](C)CO)C(=O)Cc2cc(NC(=O)CCN3CCOCC3)ccc2O[C@@H]1CN(C)C(=O)NC1CCCCC1	-0.9
C[C@@H]1CN([C@H](C)CO)C(=O)Cc2cc(NC(=O)CCCCCC(=O)Nc3ccccc3N)ccc2O[C@@H]1CN(C)S(C)(=O)=O	1.0

C[C@H](CO)N1C[C@H](C)[C@@H](CN(C)Cc2ccc3c(c2)OCO3)Oc2ccc(NC(=O)Nc3ccc(C(F)(F)F)cc3)cc2C1=O
  A1 apoptosis 2: -0.4
CC(C)NC(=O)Nc1ccc2c(c1)C(=O)N([C@@H](C)CO)C[C@H](C)[C@H](CN(C)Cc1ccncc1)O2
  A1 apoptosis 2: 1.1
C[C@@H]1CCCCO[C@@H](CN(C)C(=O)CCC(F)(F)F)[C@H](C)CN([C@H](C)CO)C(=O)c2cc(NC(=O)c3ccccc3)ccc2O1
  A1 apoptosis 2: 0.2
COc1ccc(S(=O)(=O)Nc2ccc3c(c2)C(=O)N([C@@H](C)CO)C[C@H](C)[C@@H](CN(C)C(=O)c2ccncc2)OCCCC[C@H](C)O3)cc1
  A1 apoptosis 2: 0.5
C[C@H](CO)N1C[C@H](C)[C@@H](CN(C)S(=O)(=O)c2ccc(F)cc2)Oc2ccc(NC(=O)C3CC3)cc2C1=O
  A1 apoptosis 2: -0.5
CCOC(=O)N(C)C[C@@H]1OCc2cn(nn2)CCCC(=O)N([C@H](C)CO)C[C@@H]1C
  A1 apoptosis 2: 1.5
C[C@H]1CN([C@@H](C)CO)C(=O)CCCn2nncc2CO[C@@H]1CN(C)C(=O)Nc1ccccc1C(F)(F)F
  A1 apoptosis 2: 0.5
C[C@@H]1CCCCO[C@H](CN(C)CC2CC2)[C@@H](C)CN([C@@H](C)CO)C(=O)c2cc(NS(=O)(=O)c3ccc(F)cc3)ccc2O1
  A1 apoptosis 2: -0.4
C[C@H](CO)N1C[C@H](C)[C@H](CN(C)S(=O)(=O)c2ccc(F)cc2)OCCCC[C@H](C)Oc2ccc(NC(=O)C3CCCCC3)cc2C1=O
  A1 apoptosis 2: 0.1
C[C@@H]1CN([C@@H](C)CO)C(=O)c2cc(NS(=O)(=O)c3cccs3)ccc2O[C@@H](C)CCCCO[C@@H]1CN(C)C(=O)Nc1ccc2c(c1)OCO2
  A1 apoptosis 2: -0.3
COc1ccc(S(=O)(=O)Nc2cccc3c2O[C@@H](CN(C)C)[C@H](C)CN([C@H](C)CO)C3=O)cc1
  A1 apoptosis 2: 0.8
C[C@H](CO)N1C[C@H](C)[C@@H](CN(C)C(=O)Nc2ccccc2)Oc2c(NC(=O)C3CC3)cccc2C1=O
  A1 apoptosis 2: -0.2
O=C1C[C@@](C(=O)NCc2ccccc2)(c2ccc([N+](=O)[O-])cc2)[C@@H](c2ccc(CO)cc2I)N1CC12CC3CC(CC(C3)C1)C2
  A1 apoptosis 2: -0.5
O=C(CCCCCC(=O)N/N=C/c1cc(O)ccc1[N+](=O)[O-])NO
  A1 apoptosis 2: -1.0
C[C@@H]1CN([C@@H](C)CO)C(=O)c2cccc(NC(=O)c3nc4ccccc4s3)c2O[C@@H]1CN(C)Cc1ccc(C(F)(F)F)cc1
  A1 apoptosis 2: -0.6

COc1ccc(NC(=O)Nc2ccc3c(c2)C(=O)N([C@H](C)CO)C[C@@H](C)[C@@H](CN(C)C)OCCCC[C@@H](C)O3)cc1
  A1 apoptosis 2: 0.0
COc1ccc(S(=O)(=O)N(C)C[C@H]2Oc3c(NC(=O)C4CCOCC4)cccc3C(=O)N([C@H](C)CO)C[C@@H]2C)cc1
  A1 apoptosis 2: -1.2
C[C@@H]1CN([C@@H](C)CO)C(=O)c2cccc(NS(C)(=O)=O)c2O[C@H]1CN(C)Cc1ccc2c(c1)OCO2
  A1 apoptosis 2: -0.3
O=C(CCCCCC(=O)NN=C1CCCC1)NO
  A1 apoptosis 2: 0.0
C[C@@H]1CCCCO[C@@H](CN(C)C(=O)Nc2cccc3ccccc23)[C@H](C)CN([C@H](C)CO)C(=O)c2cc(NC(=O)Cc3ccccc3)ccc2O1
  A1 apoptosis 2: -0.7
Cc1noc(C)c1NC(=O)Nc1cccc2c1O[C@H](CN(C)C)[C@H](C)CN([C@@H](C)CO)C2=O
  A1 apoptosis 2: 0.3
C[C@H]1CN([C@@H](C)CO)C(=O)c2cccc(NS(=O)(=O)c3ccc(F)cc3)c2O[C@H]1CN(C)Cc1ccc(C(F)(F)F)cc1
  A1 apoptosis 2: -0.6
C[C@@H]1CCCCO[C@@H](CN(C)Cc2ccc(C(=O)O)cc2)[C@@H](C)CN([C@@H](C)CO)C(=O)c2cc(NC(=O)c3ccncc3)ccc2O1
  A1 apoptosis 2: -0.6
CCOc1cccc(/C=N/NC(=O)CCCCCCC(=O)OC)c1OCC
  A1 apoptosis 2: -0.2
COc1ccc(CN(C)C[C@H]2Oc3ccc(NC(=O)Nc4ccc(C(F)(F)F)cc4)cc3CC(=O)N([C@H](C)CO)C[C@H]2C)cc1
  A1 apoptosis 2: 0.5
Cc1noc(C)c1S(=O)(=O)Nc1ccc2c(c1)C(=O)N([C@H](C)CO)C[C@@H](C)[C@@H](CN(C)S(=O)(=O)c1cn(C)cn1)O2
  A1 apoptosis 2: -0.2
